Screening results (PubChem)
Mtb growth – Mycobacterium tuberculosis H37Rv growth inhibition, cell based, confirmatory dose response (AID 1949); most inactive calls were filed without a number and no value below 0 was filed; inhibition, % at 10 µg/mL; hits with a dose series show IC50 in µg/mL; 100,000 tested, 1.6% active;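 active means confirmed in a dose series; inconclusive means about 50% or more but not retested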;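 further: bacteria grown 7 days with compound before Alamar blue readout; 0% = untreated bacteria and 100% = reference antibiotic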
Calls only; i = inactive; ? = inconclusive.

SMILES	Mtb growth
CC(C)Cc1ccc(C(C)C(=O)O)cc1 (stereo not given)	i
COc1ccc(C(=O)Nc2nc3ccccc3n2CCOc2ccc(Cl)cc2)cc1	?
O=C(O)CCC(=O)Nc1nc(-c2ccc(Cl)c(Cl)c2)cs1	i
CC(=O)c1ccc(OCC(=O)N2CCCCC2)cc1	i
CCN(CC)CCOc1ccccc1C(=O)CCc1ccccc1	i
Cc1ccc(Cl)cc1N(CC(=O)Nc1c(F)cccc1F)S(C)(=O)=O	i

Exported as comma-separated lines: entries from further up.
SMILES,Mtb growth
COc1ccc(C(=O)Nc2nc3ccccc3n2CCOc2ccc(Cl)cc2)cc1,?
O=C(O)CCC(=O)Nc1nc(-c2ccc(Cl)c(Cl)c2)cs1,i
CC(=O)c1ccc(OCC(=O)N2CCCCC2)cc1,i

This is a subset (hit frequency here may not be typical).
